Assay outcomes from PubChem.
CDC25B CDK2 inh: human CDC25B-CDK2/CyclinA binding inhibition; actives 0.72% (n = 94,000); z-score (test concentration not listed); P30305+P24941; HTRF CDC25B-CDK2/CyclinA binding, anti-His/anti-Flag; active compounds read high;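 further: score is relative to mean and SD of negative controls; strong numbers were not always called active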
HIV TAR-Tat: HIV-1 TAR-Tat binding disruption; HIV-1 TAR RNA, Tat peptide displacement FRET; active compounds read high; z-score (test concentration not listed); actives 0.6% (n = 100,000);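 further: score is relative to mean and SD of negative controls; some compounds called inactive have numbers as strong as hits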
Starred values were filed as active, the others as inactive; nt = not tested or not shown.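 How the source made its calls: active means z-score from 3 up in half or more of its runs; inactive means the rest.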

canonical_smiles	CDC25B CDK2 inh	HIV TAR-Tat
CCOC(=O)C1CCCN(c2c(NCCN3CCOCC3)c(=O)c2=O)C1 (stereo not drawn)	-1.4	0.56
COc1ccc(CNC2=CC(=O)OC23CCCCC3)cc1	-2.6	-0.53
O=C1CCCC2=C1C(c1cccs1)N(Cc1ccccc1)c1ccccc1N2 (stereo not drawn)	nt	1.4
COC(=O)c1cc(S(=O)(=O)NCCN2CCc3ccccc3C2)c[nH]1	nt	0.78
CCOc1ccc(-c2nnc3ccc(SCC(=O)OC)nn23)cc1	-1.6	nt
O=S1(=O)C[C@H](N2CCOCC2)[C@@H](S(=O)(=O)c2cccs2)C1	0.64	0.91
Cc1ccccc1-c1coc(-c2cccc(N)c2)n1	nt	2.1
O=C(Nc1c(C(=O)c2ccccc2)oc2ccccc12)c1ccco1	-0.58	2.2
CCOC(=O)c1cc(NS(=O)(=O)c2cccc3nonc23)ccc1N1CCCCC1	0.11	nt
O=C(C1CC1)N1CCc2cc(Br)cc(S(=O)(=O)NCCc3ccccc3Cl)c21	-0.17	0.61
CSc1ccc(-c2nc3cnccn3c2Nc2ccc(Cl)cc2)cc1	1.6	-0.56
O=C(c1ccc(NC2=NC3CS(=O)(=O)CC3S2)cc1)N1CCN(C2CCCCC2)CC1 (stereo not drawn)	nt	0.95
Cn1c(=O)c(-c2noc(CCC(=O)O)n2)nn(-c2ccccc2)c1=O	0.51	0.91
Cc1nn(Cc2ccc(F)cc2)c(C)c1NC(=O)CCCn1nc([N+](=O)[O-])c(Br)c1C	-0.36	-0.33
Cc1c(C(=O)N2CCC(C)CC2)c(S(=O)(=O)NC2CCCC2)c(C)n1C	nt	1.1
CN1CCN(c2nc(NCc3ccccc3)c3cnn(C)c3n2)CC1	nt	-0.05
NC(=O)C1(N2CCCCC2)CCN(C(=O)NC2CCCCC2)CC1	0.14	nt
O=C(NCc1nc(-c2ccc3c(c2)ncn3C2CCCC2)no1)c1ccccc1	nt	0.17
Nc1cc(-c2ccccc2)ccc1O	-1.2	0.64
COc1ccc(Cl)cc1Nc1nn2c(=O)c3ccccc3nc2s1	nt	0.47

New compounds follow:
canonical_smiles	CDC25B CDK2 inh	HIV TAR-Tat
N#CCNc1ccc([N+](=O)[O-])cc1C#N	-1.7	nt
CN(C(=O)c1nn(C)c2c1COc1ccccc1-2)C1CCCCC1	-1.6	0.21
Cc1nn2c3c(cnc2c1-c1ccc(Cl)cc1)C(=O)CC(c1ccc(F)cc1)C3 (stereo not drawn)	-0.04	0.13
O=S1(=O)C[C@H](NC2CC2)[C@@H](S(=O)(=O)c2cccs2)C1	0.09	0.62
CC(C)Oc1ccccc1C1Nc2ccccc2NC2=C1C(=O)CC(c1ccccc1)C2 (stereo not drawn)	-3.3	1.4
O=C(O)C1CCN(S(=O)(=O)c2ccc(Cl)cc2)CC1	1.3	3.1
O=C(Cn1ncn2c(cc3ccccc32)c1=O)N1CCCC1	-1.6	0.86
COCCn1c(SCC(=O)N2CCN(c3ccccc3)CC2)nc2c(c1=O)SCC2	-1.2	1.6
Cc1nn(C)c2[nH]c3c(c(=O)c12)CSC3	-1.5	nt
O=C(c1sc2ccccc2c1Cl)N1CCc2ccccc21	-8.5	2.1
O=C(CSc1ccc(-c2ccccn2)nn1)Nc1ccccc1	nt	2.1
Cc1nc(-n2[nH]c(C)c(CC(=O)NC(C)C)c2=O)sc1C	-2.2	-1.6
O=C(c1cc(C(F)(F)F)cc(C(F)(F)F)c1)N1CC=CCC1	0.86	nt
COc1ccc(-c2noc(CNS(=O)(=O)c3ccc(Cl)cc3)n2)cc1	-1.2	0.21
CCC(C)(C(=O)NC1CCCC1)N(CC1CCCO1)C(=O)c1ccc2c(c1)OCO2 (stereo not drawn)	-0.53	nt
Cc1ccc(-c2nc3ccccc3c3nnc(SC(C)C(=O)NC4CC4)n23)cc1 (stereo not drawn)	nt	0.59
O=C1CSc2ccc(S(=O)(=O)N3CCC(C(=O)N4CCc5ccccc54)CC3)cc2N1	nt	-0.95
COc1ccc(NS(=O)(=O)c2cc(Br)cnc2N)c(OC)c1	-0.83	1.4
CC1(C)CC(=O)C2=C(C1)OC1=C(C(=O)CC(C)(C)C1)C2(C)C	-0.98	nt
Cc1cc(C)c(S(=O)(=O)N2CCCCC2)cc1N(C)S(=O)(=O)c1ccc(Cl)cc1	-1.3	1.1

4 of the compounds above, field by field.
SMILES: CCC(C)(C(=O)NC1CCCC1)N(CC1CCCO1)C(=O)c1ccc2c(c1)OCO2 (stereo not drawn)
  CDC25B CDK2 inh = -0.53
  HIV TAR-Tat = nt

SMILES: Cc1ccc(-c2nc3ccccc3c3nnc(SC(C)C(=O)NC4CC4)n23)cc1 (stereo not drawn)
  CDC25B CDK2 inh = nt
  HIV TAR-Tat = 0.59

SMILES: O=C1CSc2ccc(S(=O)(=O)N3CCC(C(=O)N4CCc5ccccc54)CC3)cc2N1
  CDC25B CDK2 inh = nt
  HIV TAR-Tat = -0.95

SMILES: COc1ccc(NS(=O)(=O)c2cc(Br)cnc2N)c(OC)c1
  CDC25B CDK2 inh = -0.83
  HIV TAR-Tat = 1.4

The list continues:
canonical_smiles	CDC25B CDK2 inh	HIV TAR-Tat
Cc1cc2c(cc3c(=O)n(CC(=O)NC4CCC(C)CC4)ncn32)s1 (stereo not drawn)	-1	-0.28
CCn1c(C(O)c2ccc(N(C)C)cc2)nc2ccccc21 (stereo not drawn)	-0.74	1
Cn1c(-c2ccco2)nc2ccccc21	0.58	-2.4
CCOc1ccc(NS(=O)(=O)c2ccc3c(c2)NC(=O)CCS3)cc1	nt	1.2
Cc1cccc(Nc2c(C)c(C)nc3ncnn23)c1C	nt	1.5
COc1ccc(-n2c(Cn3c(=O)sc4ccccc43)nnc2SC)cc1	-0.82	nt
Cn1c(CCNC(=O)c2ccco2)nc2cc(NC(=O)c3cccs3)ccc21	-0.53	-1.4
Cc1ccc(OCC(O)Cn2c(COc3ccccc3)nc3ccccc32)cc1 (stereo not drawn)	-2.6	-0.94
CCCNc1nc(-c2ccc(C)cc2)cs1	-0.78	-1.3
N/C(=N\OC(=O)c1csc([N+](=O)[O-])c1)c1ccccn1	-3	nt
CC(C)(C)C1CCc2c(sc3nnn(CC(=O)N4CCCCC4)c(=O)c23)C1 (stereo not drawn)	-2.3	2.8
COC(=O)/C(=C1\OC(=O)C(c2ccccc2)C1=O)c1ccccc1 (stereo not drawn)	nt	2.2
O=C(CSc1nc2ccccc2o1)N=Nc1c(O)n(CN2CCCC2)c2ccccc12	-1.8	nt
CCN1CCN(c2ncc(C(=O)NCc3cccs3)c(C)n2)CC1	nt	1.9
CC1=C(C(=O)N2CCN(c3cc(C)ccc3C)CC2)C2(CCC(C)CC2)OC1=O (stereo not drawn)	-0.93	-1.1
CCOC(=O)C(=O)c1c(C)[nH]c(C)c1C(=O)OC	-0.19	1.3
Cc1nnsc1C(=O)Nc1c(C(=O)Nc2ccc(Cl)cc2)oc2ccccc12	0.48	0.35
O=C1CS(=O)(=O)C(c2cccs2)N1CC1CC1 (stereo not drawn)	0.48	nt
CC1=C(c2ccc(C)cc2)S(=O)(=O)N=C1Nc1ccccc1F	-3	-1.3
COc1ccccc1N1C(=O)C2C(c3ccccc3C)OC3(C(=O)c4ccccc4C3=O)C2C1=O (stereo not drawn)	0.1	0.51

Later entries:
Molecule	CDC25B CDK2 inh	HIV TAR-Tat
CCCc1nnc(NC(=O)c2cc(=O)c3c(C)cc(C)cc3o2)s1	-0.86	-0.49
COc1ccc(-c2nc(SCc3cc(=O)c4cc(F)ccc4[nH]3)n[nH]2)cc1	nt	-1.1
OC1(C(F)(F)F)CC(/C=C/c2cccs2)=NO1 (stereo not drawn)	-0.22	nt
CSc1nc(NCc2ccccc2)c2c3c(sc2n1)CCC3	-0.12	-0.95
Cc1cc(C)nc(N2N=C(CSc3nnnn3-c3ccccc3)CC2=O)n1	0.31	0.66
c1ccc(Cc2nc3cccnc3n2C2CCN(Cc3ccccc3)CC2)cc1	nt	0.54
COc1ccc(C(=O)c2oc3cc(N)ccc3c2C)cc1OC	nt	-1.4
O=c1[nH]nc(-c2cccs2)cc1CC1CCCCC1	0.58	nt
O=C(Nc1nnc(-c2ccco2)s1)C(=O)c1c[nH]c2ccccc12	-2.1	17*
O=C(Oc1ccc2cc(Br)ccc2c1)c1cccnc1	-2	0.17
CC(CC(O)C1OC1(C)C)[C@@H]1CCC2(C)C3=CCC4C(C)(C)C(=O)CCC4(C)C3CC[C@@]12C (stereo partly drawn)	nt	0.88
CC1CCCN(c2cc(N3CCOCC3)c3c4c(onc24)-c2ccccc2C3=O)C1 (stereo not drawn)	-0.16	-3.2
O=C(Cn1c(=O)c2cccn2c2ccc(F)cc21)NCCN1CCOCC1	nt	-2.1
O=C(C1CC1)N1CCc2cc(Br)cc(S(=O)(=O)N3CCN(c4ccccn4)CC3)c21	1.5	1.8
CC12CCC(C1)C(C)(C)C2NS(=O)(=O)c1ccc(C#N)cc1 (stereo not drawn)	-2.6	nt
COc1ccc(N2C(=O)C3C4C=CC(C4)C3C2=O)cc1OC (stereo not drawn)	0.45	nt
Cc1cc(N2CCN(c3ccccc3)CC2)n2nc(-c3ccco3)nc2n1	nt	1.2
Cc1oc(C)c2c(=O)cc(-c3cccs3)cc(OC(=O)c3cccc(Br)c3)c12	-1.5	-1.6
CCc1nc2nc(C)cc(Nc3ccccc3Cl)n2n1	-0.75	-0.3
Cn1c(=O)c(C(=O)O)nc2ccccc21	-1.8	0.87
COc1ccc(-c2nc(SCC(=O)OCc3ccccc3)c3c(=O)n(C)c(=O)n(C)c3n2)cc1	0.07	0.82
CC(=O)NS(=O)(=O)c1ccc(N)cc1	nt	0.75
O=C(NCc1ccccn1)c1ccc2cccc(O)c2n1	nt	0.51
CC(=O)Nc1ccc(C)c(NS(=O)(=O)c2cc(Cl)ccc2Cl)c1	-1.1	nt
CC(C)OCC(O)Cn1c(NC2CCCCC2)nc2c1c(=O)[nH]c(=O)n2C (stereo not drawn)	-0.37	-1.3

Carrying on.
Molecule	CDC25B CDK2 inh	HIV TAR-Tat
Nc1nc2c(ncn2COC(CO)CO)c(=O)[nH]1	-1.9	nt
C=CCOc1ccc(C2Oc3nc(SC)nnc3-c3ccccc3N2C(C)=O)cc1 (stereo not drawn)	-0.9	0.14
O=C1CCCC2=C1C(c1ccccc1Cl)Nc1ccc(C(=O)c3ccccc3)cc1N2 (stereo not drawn)	-2.3	0.49
CSc1nnc2c(n1)OC(c1cc3c(cc1Cl)OCO3)N(C(C)=O)c1ccccc1-2 (stereo not drawn)	-2.2	-0.46
C=CCN1C(=O)C2(/C(=C(/O)c3ccc(C)c(F)c3)C(=O)C(=O)N2CCCOC)c2ccccc21 (stereo not drawn)	0.87	1.6
CC(C)(C)NC(=O)[C@@H]1C[C@@H]2CCCC[C@@H]2CN1C(=O)c1ccc(C(F)(F)F)cc1	-2.4	nt
O=C(NC1CCCC1)c1ccc(Cn2nc(N3CCN(c4ccccc4)CC3)ccc2=O)o1	nt	0.85
COc1cc(OC)c(NCc2ccc(C(=O)O)s2)cc1Cl	nt	-0.4
CC(C)CCNC(=O)C1CCCN(S(=O)(=O)N2CCOCC2)C1 (stereo not drawn)	nt	-0.69
CC(C)c1nc2n(n1)C1(CCCCC1)[C@@H]1CCCC[C@@H]1N2C(=O)C1CC1	-1.6	0.46
CCCCCCn1c(CN2CCC(C)CC2)nc2c1c(=O)n(C)c(=O)n2C	0.09	0.12
CN1C(=O)CSc2ccc(NC(=O)Nc3ccc(Cl)cn3)cc21	4.6	-4.5
Cn1cnc([N+](=O)[O-])c1Sc1cccs1	-0.64	nt
Cc1ccc(-c2coc(-c3ccc(NS(=O)(=O)c4ccc(F)cc4)cc3)n2)c(C)c1	nt	1.6
Cc1nc2ccccn2c1-c1csc(NCc2ccco2)n1	-3	nt
Cc1noc2ncnc(N3CCCC(C(=O)N4CCOCC4)C3)c12 (stereo not drawn)	nt	1.4
O=C(CC(C(=O)c1cccs1)c1ccsc1)c1cccs1 (stereo not drawn)	-0.33	nt
Clc1cccc(Cl)c1CSCc1cc2ccccc2o1	0.08	nt
Cn1c(=O)n(C)c2cc(CNC3CCCCC3)ccc21	-1.7	2.5
CCOC(=O)c1cc(S(=O)(=O)Nc2ccc(Br)cc2)[nH]n1	nt	2.1
CCOCCCNC(=O)c1sc2ncccc2c1-n1cccc1	nt	0.8
CC1=C(C(=O)O)N2C(=O)[C@@H](NC(=O)[C@H](N)C3=CCC=CC3)C2SC1 (stereo partly drawn)	nt	1.1
CCOc1c(N2CCCC2)c(=O)c1=O	nt	0.05
CCOC(=O)/C(C#N)=C\c1ccncc1	-2.2	nt
c1csc(CCNc2ncnc3sc4c(c23)CCC4)c1	0.98	nt

More results follow.
Molecule	CDC25B CDK2 inh	HIV TAR-Tat
CCOC(=O)CS(=O)(=O)c1ncc(C(F)(F)F)cc1Cl	-1.3	-1.1
COc1ccc2c(c1)C=C(C(=O)Nc1ccc(-n3cnnn3)cc1)C=CO2	0.63	-0.36
Cc1cc2ccccc2n2c(SCC(=O)N3CCOCC3)nnc12	0.25	2.2
Cn1cccc1Cc1nnc(SCC(=O)Nc2nccs2)n1-c1ccccc1	-1.4	0.22
CCCNC(=O)CCCn1nc(C)n2c(cc3oc(C)cc32)c1=O	-1.4	1.5

Compound profiles (already shown). Values in the order: CDC25B CDK2 inh | HIV TAR-Tat
COC(=O)c1cc(S(=O)(=O)NCCN2CCc3ccccc3C2)c[nH]1 reads nt | 0.78
COC(=O)/C(=C1\OC(=O)C(c2ccccc2)C1=O)c1ccccc1 (stereo not drawn) reads nt | 2.2
O=C(CSc1nc2ccccc2o1)N=Nc1c(O)n(CN2CCCC2)c2ccccc12 reads -1.8 | nt
COc1ccc(N2C(=O)C3C4C=CC(C4)C3C2=O)cc1OC (stereo not drawn) reads 0.45 | nt
